# TRPML1 ag: qHTS for Agonists of the Human Mucolipin Transient Receptor Potential 1 (TRPML1); TRPML1-expressing cells, Ca2+ dye fluorescence, FDSS; host cell line not named in the record; reference of the full effect not given here; activation, % (concentration not given with the values); 410,000 compounds, 0.12% hits; in the data active = activation above about 50%; inconclusive = about 30% to 50%; inactive = below about 30%; also: 0% is about no effect; the text of the record puts the active cut at 80%
#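 In this qHTS format, compounds were pin-transferred onto Ca8-dye-loaded TRPML1-DL cells induced with Tet overnight, and intracellular Ca2+ fluorescence was recorded kinetically for 110 s after a 10 s baseline. A subsequent 4uM final 54-4 (EC80) addition followed by a second 110 s read served as the antagonist phase.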
# TRPML1 blocker: qHTS for Inhibitors of the Human Mucolipin Transient Receptor Potential 1 (TRPML1); Mucolipin-1 (Homo sapiens), Q9GZU1; TRPML1-inducible cells, Ca2+ dye fluorescence, FDSS; active compounds read low; inhibition of EC80 agonist-evoked calcium signal; activity change, negative = inhibition, % (test concentration not listed); 390,000 compounds, 0.02% hits; AID 624415, 2012; in the data active means activity change below about -50%; inconclusive means about -30% to -50%; inactive means above about -30%;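 also: stimulus is agonist 54-4 at its EC80 concentration; % is scaled to controls: 0 for no effect and ±100 for the full control effect; compound concentration not given in the record; the text of the record puts the active cut at -80%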
#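 Calcium fluorescence in TRPML1-DL cells induced overnight with Tet: a 110 s read after compound pin addition, then a 110 s antagonist read after challenge with 54-4 at 4 uM final (EC80).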
# Six1-Eya2 inh: qHTS Assay for Inhibitors of the Six1/Eya2 Interaction; activity change, % (test concentration not listed); 360,000 compounds, 0.56% hits; AID 651725, 2012; AlphaScreen GST-Six1/His-Eya2 binding, biochemical; active compounds read low; control for the full effect not named in the record; in the data active = activity change below about -65%; inconclusive = about -30% to -65%; inactive = above about -30%; also: % is scaled to controls: 0 for no effect and ±100 for the full control effect
# Target sequence (O00167 whole entry, looked up): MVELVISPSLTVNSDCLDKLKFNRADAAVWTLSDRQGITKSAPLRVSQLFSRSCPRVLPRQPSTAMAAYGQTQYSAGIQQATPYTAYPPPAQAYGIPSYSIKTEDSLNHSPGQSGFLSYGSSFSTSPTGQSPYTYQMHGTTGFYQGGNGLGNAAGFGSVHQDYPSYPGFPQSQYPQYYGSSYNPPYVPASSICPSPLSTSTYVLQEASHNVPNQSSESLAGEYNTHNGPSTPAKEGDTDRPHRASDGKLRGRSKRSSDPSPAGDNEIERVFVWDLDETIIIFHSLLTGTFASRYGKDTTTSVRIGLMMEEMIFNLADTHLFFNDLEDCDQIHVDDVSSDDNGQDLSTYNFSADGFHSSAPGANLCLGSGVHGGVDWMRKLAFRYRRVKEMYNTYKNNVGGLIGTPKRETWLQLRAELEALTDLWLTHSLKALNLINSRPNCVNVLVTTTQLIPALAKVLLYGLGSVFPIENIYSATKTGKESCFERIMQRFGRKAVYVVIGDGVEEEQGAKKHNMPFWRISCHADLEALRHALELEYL
# Target sequence (Q15475 whole entry, looked up): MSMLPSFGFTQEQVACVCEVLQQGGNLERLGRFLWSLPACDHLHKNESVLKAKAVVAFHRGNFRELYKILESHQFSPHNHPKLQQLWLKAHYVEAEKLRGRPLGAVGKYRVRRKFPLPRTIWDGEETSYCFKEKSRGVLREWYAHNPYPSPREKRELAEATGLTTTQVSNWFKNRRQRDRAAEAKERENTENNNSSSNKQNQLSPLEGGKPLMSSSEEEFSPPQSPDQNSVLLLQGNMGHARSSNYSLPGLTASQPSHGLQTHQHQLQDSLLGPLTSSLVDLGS
#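 AlphaScreen with GST-Six1 and His-Eya2 (5X mix: 250 nM and 500 nM), glutathione donor and nickel acceptor beads; buffer 50 mM Tris pH 8.0, 300 mM NaCl, 1 mM TCEP; 1 h at 37 C in the dark.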
# D2 ag: Beta-Arrestin HTS for Positive Allosteric Modulators of the Human D2 Dopamine Receptor: Agonists; D(2) dopamine receptor (Homo sapiens), P14416; DiscoveRx PathHunter D2 beta-arrestin, luminescence, 90 min; 100% = 57 uM dopamine signal; activation, % (no concentration beside the values); 360,000 compounds, 0.084% hits; in the data active = activation above about 40%; inconclusive = about 15% to 40%; inactive = below about 15%; also: compound concentration not given in the record; the text of the record calls up to 30% inactive
#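 DiscoveRx PathHunter D2 beta-arrestin cells (2,100/well) attached overnight, then compound-stimulated 90 min at 37 C in HBSS/10 mM HEPES/0.1% Tween-20 buffer; beta-galactosidase complementation read by luminescence after 1 h at ambient temperature. Dopamine 57 uM final (EC100) as control.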
# PINK1 modulator: A Quantitative High throughput Screen to Identify Chemical Modulators of PINK1 Expression | AID 624263, 2012 | Potency, µM (titrated, usually from 76.6 µM), for the others: at the highest dose activation (PINK1 increase), most hits filed as activators | PINK1 immunofluorescence, high-content cytometry, 24 h | 410,000 compounds, 0.2% hits; active = well fitted activation curve with a large enough effect; inconclusive = small, poorly fitted or top-dose-only effect; inactive = flat fitted curve, though single readings scatter; cell line not stated here;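 also: potency is read from the fitted curve at half-maximal effect; % of control where 0% means no effect; nearly all actives have a fitted effect of over 65% in size; a mitochondrial uncoupler was the plate control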
#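 PINK1 protein, normally rapidly degraded, was detected by immunofluorescence after 24 hour compound treatment of a stable cell line. Titration data (5 concentrations) came from laser-scanning cytometry, with CCCP-treated wells as controls.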
# D2 PAM: Beta-Arrestin HTS for Positive Allosteric Modulators of the Human D2 Dopamine Receptor: Potentiators. 360,000 compounds, 0.23% hits. DiscoveRx D2 beta-arrestin cells, luminescence, 90 min; 100% = 57 uM dopamine signal. AID 624464, 2012. D(2) dopamine receptor (Homo sapiens), P14416. potentiation, % (test concentration not listed); active = potentiation of 50% or more; inconclusive = 30% to 50%; inactive = 30% or less;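 also: compound concentration not given in the record; tested on top of an EC20 dose of dopamine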
#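 PathHunter beta-arrestin assay in DiscoveRx D2 cells. Compounds were added with an EC20 of dopamine (50 nM final) for 90 min at 37 deg C. Luminescence was read 1 h after detection reagent, with 57 uM dopamine as the EC100 control.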
# An asterisk follows results filed as active; ? = inconclusive; nt = no result given; & = joins results of further samples; [ ] = dose if it differs, or a comment. Hits appear at their usual frequency; overall some 1% were active at least once.
molecule	TRPML1 ag	TRPML1 blocker	Six1-Eya2 inh	D2 ag	PINK1 modulator	D2 PAM
NS(=O)(=O)c1ccc(-c2ccc(/C=C3\C(=O)Nc4cc(Cl)ccc43)o2)cc1	0.2	-8.9	?	0.8	-1.4%	0.5
Nc1c(Br)cc(Br)c2c1[nH]c(=O)c1ccccc12	-0.1	-11.2	-5.8	2.3	2.0%	-4.3
CCc1ccc(OCC(=O)Oc2ccc([N+](=O)[O-])cc2)cc1	-0.3	-4.8	6.2	-2.6	-0.4%	-5.2
CN(C)c1ccc(C=Nc2cnn(C)c2C(N)=O)cc1	0.9	-3.5	-11.9	-2.8	-0.8%	-4.0
COc1ccccc1Nc1nc2ccc(C)cc2cc1C#N	0.0	5.3	25.1	-3.5	?	-18.0
COc1ccc(NC(=S)N2CCN(S(=O)(=O)c3ccccc3)CC2)cc1	0.5	2.1	0.2	0.5	4.7%	-4.4
CCN(CCCCCN(C)C)Cc1cc2ccccc2o1	0.3	16.7	1.5	-0.8	-1.4%	-5.0
CCOc1ccc(N2CC(C(=O)Nc3cccc(C(=O)NC4CC4)c3)CC2=O)cc1 (configuration not stated)	-0.6	-13.6	5.0	-0.1	0.4%	0.3
CC(=O)Nc1ccc(S(=O)(=O)NC(C)C(=O)OCC(=O)NC2CCCC2)cc1 (configuration not stated)	-0.6	-4.8	8.3	-0.5	-2.1%	-15.6
CCN(C(=O)COC(=O)c1ccc(S(=O)(=O)N2CCCc3ccccc32)cc1)C1CCS(=O)(=O)C1 (configuration not stated)	-0.2	-4.8	-0.4	1.4	1.5%	-1.6
O=C(CCC(=O)Nc1cc(C(F)(F)F)ccc1Cl)N/N=C\c1cc([N+](=O)[O-])ccc1O	2.7	42.9	-29.8	-10.6	0.7%	-23.2
Cc1occc1-c1nnc(SCC(N)=O)o1	-0.8	-11.9	70.7	-3.3	-0.5%	-1.4
CCCn1nnc(NC(=O)c2ccc([N+](=O)[O-])cc2Cl)n1	0.3	3.9	1.3	0.4	-0.8%	14.1
C=CCNc1nnc(C)c2ccccc12	0.7	-9.7	-3.5	-5.1	-0.3%	-12.9
CCOC(=O)CSc1nnc(CNC(=O)c2ccc(OC)cc2)n1C1CCCCC1	1.1	3.6	-0.1	8.4	-1.9%	6.7
C=C(C)c1cccc(C(C)(C)NC(=O)Nc2ccccc2OCC)c1	1.8	17.7	0.3	-1.7	12.7%	-5.7
c1ccn(-c2ccc(-c3ccn[nH]3)cc2)c1	0.2	-15.4	-16.5	3.8	-3.2%	-17.5
COc1ccc(CCNCc2c(C(=O)O)c(C)n(Cc3cccc(Cl)c3)c2C)c(OC)c1OC	-0.7	2.7	nt	nt	-1.7%	nt
C=CCC[C@@H](Cc1ccc(F)cc1)C(=O)OC[C@H](Cc1c[nH]c2ccccc12)NC(=O)[C@@H](CC=C)CC(=O)N[C@H](CO)Cc1ccccc1	0.2	6.9	1.1	0.5	7.2%	-21.7
CCCCC1=CC2=C(c3ccco3)C(=O)C(C)(OC(=O)c3ccc(OC)cc3)C(=O)C2=CN1C1CCCCC1 (configuration not stated)	-0.3	-12.8	?	1.4	0.7%	-3.9
CC1CCCN(C(=O)CCCn2c(=S)[nH]c3ccccc3c2=O)C1 (configuration not stated)	-0.3	2.4	-0.5	-3.2	-1.1%[38.3 µM]	-2.3
O=C(Nc1ccc(Cl)cc1)C1CC=CCC1C(=O)OCC(F)(F)C(F)F (configuration not stated)	1.2	-7.6	2.5	-2.0	0.3%	-0.3
COc1cc(O)sc1C=Nc1ccc(Cl)cc1Cl	-0.9	-1.9	4.1	-4.1	0.1%	-3.5
O=C(NC1CCCC1)c1cc(-c2cccs2)on1	0.8&5.9	-3.5	8.4	0.2	5.2%[38.3 µM]	-19.7
Cc1cc(-c2nc3ccccc3s2)ccc1NC(=O)c1cc(Cl)ccc1Cl	0.9	-10.6	nt	nt	3.3%	nt
COc1ccc(-c2noc(CCCOc3ccc(Cl)cc3Cl)n2)cc1	4.4	-8.3	63.3	-2.3	1.4%	-4.2
COc1ccc(N2C(=O)/C(=C3/C=CC=CN3C)SC2=S)cc1	-0.5	2.7	0.3	-4.0	-0.6%	-22.2
OCCCNc1nc(-c2ccc(Cl)cc2)nnc1-c1ccccc1	0.6	-21.0	-11.4	-1.3	0.3%	-4.9
CC(NC(=O)CSC(=S)N1CCCC1)c1ccc(S(N)(=O)=O)cc1 (configuration not stated)	-0.1	-12.1	-1.2	-3.6	-1.4%	5.4
O=C(Nc1ccc2c(c1)OCO2)OCc1ccccc1	0.9	-1.2	-9.4	-1.3	9.8%[38.3 µM]	-1.3
COCCNC(=O)/C(C#N)=C/c1nc(N(C)C)n(-c2ccc(F)cc2)c1Cl	-0.3	-5.2	1.5	5.5	1.3%	-2.4
COc1ccccc1-n1c(C)nc2cc(C(=O)NCC3CCCO3)ccc21 (configuration not stated)	-0.1	45.8	2.2	-5.9	0.4%	-35.1
CN1CCCN(S(=O)(=O)c2cccc(C#N)c2)CC1	1.4	2.9	3.6	-3.1	-0.1%	-3.5
Cc1ccc(-n2ncc3c2CCCC3NC(=O)CCn2ccnc2C)cc1C (configuration not stated)	0.2	12.5	0.5	-3.9	3.6%	-18.7
C[C@H]1CN([C@@H](C)CO)C(=O)Cc2cc(NC(=O)CCN3CCOCC3)ccc2O[C@@H]1CN(C)Cc1ccc(Oc2ccccc2)cc1	0.1	29.5	-5.7	-2.3	0.4%	nt
Cc1ccc(N(CC(=O)NCC2CCCO2)C(=O)CCC(=O)Nc2ccccn2)cc1 (configuration not stated)	0.3	31.7	2.7	0.3	-0.4%	-2.9
COc1ccccc1/C=C1\NC(=S)N(CC2CCCO2)C1=O (configuration not stated)	1.4	21.4	-5.7	1.3	nt	-3.9
CC(C)[C@H](NC(=O)c1ccco1)C(=O)OCC(=O)Nc1ccccc1OC(F)F	-0.7	43.0	14.8	2.1	0.2%	-13.2
C=CCSc1nnc(NC(=O)CSc2nc3ccccc3[nH]2)s1	0.5	6.0	-4.5	0.0	6.9%[38.3 µM]	-14.4
COc1ccc(-c2nnc(SCC(=O)O)n2C)cc1OC	0.2	-12.0	2.5	8.8	1.2%	-1.8

# Four structures out of the list, ordered by heavy-atom count, rising.
molecule	TRPML1 ag	TRPML1 blocker	Six1-Eya2 inh	D2 ag	PINK1 modulator	D2 PAM
COc1ccccc1/C=C1\NC(=S)N(CC2CCCO2)C1=O (configuration not stated)	1.4	21.4	-5.7	1.3	nt	-3.9
C=CCSc1nnc(NC(=O)CSc2nc3ccccc3[nH]2)s1	0.5	6.0	-4.5	0.0	6.9%[38.3 µM]	-14.4
OCCCNc1nc(-c2ccc(Cl)cc2)nnc1-c1ccccc1	0.6	-21.0	-11.4	-1.3	0.3%	-4.9
COc1ccccc1-n1c(C)nc2cc(C(=O)NCC3CCCO3)ccc21 (configuration not stated)	-0.1	45.8	2.2	-5.9	0.4%	-35.1

# (cont.)
molecule	TRPML1 ag	TRPML1 blocker	Six1-Eya2 inh	D2 ag	PINK1 modulator	D2 PAM
O=[N+]([O-])c1ccc(COc2cccc(CN3CCCC3)c2)cc1	-1.1	1.6	-8.7	0.8	-1.1%	-9.9
Cn1c(=NC(=O)c2ccco2)sc2cccc(F)c21	0.2	-6.0	-0.4	-3.4	-0.6%	-2.0
CCc1ccc(C(=O)C[n+]2cccc3cc(OC)ccc32)cc1	0.2	12.8	2.1	-4.5	0.4%	-19.3
COc1ccc(NC(=O)C2=C(C)Nc3nc(SCc4ccccc4C)nn3C2c2ccc(Br)cc2)cc1 (configuration not stated)	0.3	16.5	nt	nt	-0.1%	nt
O=C(NCCCn1ccnc1)C(Cc1ccc([N+](=O)[O-])cc1)N1C(=O)c2ccccc2C1=O (configuration not stated)	0.5	3.4	7.5	-0.1	0.4%	-3.0
COc1ccc2[nH]c(=O)c(CN(Cc3ccccc3)Cc3nnnn3CC3CCCO3)cc2c1 (configuration not stated)	0.1	-9.0	-6.8	-0.9	3.6%[38.3 µM]	-21.3
Cc1cc2nc[nH]c(=O)n2n1	-0.7	-5.1	-6.9	-3.0	-0.2%	-5.2
COC(=O)c1ccc(NC(=O)CSc2cn(CC(=O)N3CCCCCC3)c3ccccc23)cc1	1.1	0.0	nt	nt	1.9%	nt
Nc1ccc(OCCCc2c(N)nc(N)nc2N)cc1	-0.4	-9.6	-12.5	3.3	0.2%	-2.7
Cc1ccc(OCc2csc(N)n2)cc1	-1.3	-15.5	4.0	-2.0	-0.4%	-17.6
Cc1sc2nc(SCC(=O)Nc3ccc(S(N)(=O)=O)cc3)[nH]c(=O)c2c1C	-0.5	11.6	-11.0	-1.9	6.2%	-13.1
COc1ccc(CNC(=O)CN(C)S(=O)(=O)c2ccc3c(c2)OCCO3)cc1OC	-0.4	-2.4	0.7	1.6	-0.5%	-1.8
O=C(Nc1ccsc1C(=O)O)c1ccccc1	1.3	24.4	-25.0	0.6	-0.3%	9.4
CCOC(=O)C1Oc2ccccc2C(c2ccoc2)=C1C(=O)OC (configuration not stated)	-0.9	5.8	1.1	-0.4	-0.5%	nt
OC(c1ccccc1)C(O)c1ccccc1 (configuration not stated)	0.6	-9.2	-4.5	1.3	-0.1%	-0.2
CCOC(=O)Nc1ccc2c(c1)N(C(=O)CCN(CC)CC)c1ccccc1S2=O (configuration not stated)	0.8	22.2	5.0	-4.4	0.5%	-14.6
COc1ccccc1/C=C1\SC(=S)N(NS(=O)(=O)c2ccccc2)C1=O	3.3	-13.2	-0.4	-1.0	-0.8%	-8.0
CCOC(=O)c1[nH]ncc1CN1CCC(Cc2cccc(OC)c2)(C(=O)OCC)CC1	-0.6	-9.6	4.8	-0.1	-0.1%	-9.8
COCCCNC(=O)CCCOc1ccccc1	-0.1	-5.3	3.0	-0.9	1.3%[38.3 µM]	4.4
CCCn1c2c(c(O)c(C(=O)NCCCN(CC)CC)c1=O)CCCC2	-0.3	-5.0	21.2	-2.2	0.4%	-27.9
O=[N+]([O-])c1ccc(S(=O)(=O)N(CC(O)CN2CCCCC2)c2ccccc2)cc1 (configuration not stated)	0.2	4.7	-2.2	2.4	-1.1%	-5.7
COc1ccc(Cc2nnc(SC)[nH]c2=O)cc1	-0.6	?	0.1	-2.2	1.6%[38.3 µM]	-10.1
